Assay outcomes: PubChem, National Center for Advancing Translational Sciences (NCATS)
2A StopGo = High Throughput Screening for Foot and Mouth Disease Virus Antivirals; human cells with a luciferase reporter of 2A StopGo recoding; control for the full effect not named in the record; Potency, µM (top dose mostly 57.9 µM), inactives show at the highest dose signal change, negative = less light; hit rate 1.2% among 410,000; AID 1159524, 2015; active = well fitted falling curve with a large enough effect; inconclusive = small, poorly fitted or top-dose-only effect; inactive = no such curve, though single readings can be large or run the other way; tested in HEK293T cells; note: % is set by controls: 0 for no effect and ±100 for the full control effect; nearly all actives have a fitted effect of over 45% in size; luciferase light after 4 h
Cruzain Triton = qHTS Assay for Promiscuous and Specific Inhibitors of Cruzain (with detergent); purified cruzain, Z-FR-AMC fluorescence, 0.01% Triton; Potency, µM, for inactives: max response, negative = inhibition, hits mostly inhibitors; hit rate 0.43% among 200,000; AID 1478, 2009; active = well fitted curve in the direction sought with a large enough effect; inconclusive = small, poorly fitted or top-dose-only effect, or another doubt; inactive = no such curve, though single readings can be large; an effect the other way counts as inactive or inconclusive;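 note: plate controls were neutral wells for no effect and buffer without enzyme for full effect; nearly all actives have a fitted effect of over 40% in size; top concentration of the series not given in the record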
Target sequence (P25779 123-467 limits assumed): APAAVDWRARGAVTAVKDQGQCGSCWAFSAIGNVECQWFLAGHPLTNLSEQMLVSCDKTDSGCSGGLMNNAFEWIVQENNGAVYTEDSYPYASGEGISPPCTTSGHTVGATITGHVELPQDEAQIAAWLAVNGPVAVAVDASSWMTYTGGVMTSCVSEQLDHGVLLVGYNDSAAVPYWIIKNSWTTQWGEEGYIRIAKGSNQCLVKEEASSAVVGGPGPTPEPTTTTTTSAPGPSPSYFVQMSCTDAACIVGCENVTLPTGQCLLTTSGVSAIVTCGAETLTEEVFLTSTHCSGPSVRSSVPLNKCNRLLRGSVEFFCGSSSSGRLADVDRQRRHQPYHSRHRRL
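15 min RT preincubation of 1.5 nM cruzain with compound, then 2 uM Z-FR-AMC added; kinetic AMC fluorescence, 60 s delta. Triton X-100 0.01%, pH 5.5.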
MARV entry inh = qHTS for inhibitors of binding or entry into cells for Marburg Virus. Marburg virus pseudotyped entry inhibition, cell reporter; control for the full effect not named in the record; about a third of the inactives were read at about 46 µM. Potency, µM (doses to about 37.8 µM), for inactives: top-dose activity change, negative = inhibition, hits mostly inhibitors. hit rate 1.8% among 300,000. AID 540276, 2011; active = well fitted inhibition curve with a large enough effect; inconclusive = small, poorly fitted or top-dose-only effect, or effect the other way; inactive = flat fitted curve, though single readings scatter; tested in HEK293 cells; about a fifth of its hits are not listed in these tables; note: % is set by controls: 0 for no effect and ±100 for the full control effect; luciferase read-out
RE007 growth inh = qHTS Assay for Inhibitors of the HIV-1 protein Vpr | Potency, µM (top dose mostly 92.2 µM), for inactives: at the top dose activity change, negative = less growth | hit rate 0.21% among 360,000 | S. pombe RE007 Vpr strain, BacTiter-Glo ATP luminescence, 24 h; control for the full effect not named in the record; active = well fitted falling curve with a large enough effect; inconclusive = small, poorly fitted or top-dose-only effect; inactive = no such curve, though single readings can be large or run the other way;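 note: % is set by controls: 0 for no effect and ±100 for the full control effect; nearly all actives have a fitted effect of over 50% in size; the assay follows cell death caused by Vpr and the record does not say whether a fall means rescue or toxicity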
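Fission yeast strain RE007, carrying one chromosomally integrated HIV-1 vpr copy, was seeded at OD 0.01 in PMG+AL medium with 23 nL pinned compound. After 24 h at 30 °C and 99% humidity, viability was read by BacTiter-Glo luminescence.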
SARS PLP yeast = qHTS of Yeast-based Assay for SARS-CoV PLP; S. cerevisiae expressing SARS-CoV PLpro, growth rescue; control for the full effect not named in the record; Potency, µM (highest dose often 32.9 µM), for inactives: at the top dose activity, positive = growth rescue; hit rate 0.19% among 330,000; AID 485353, 2010; note: 0% is about no effect; nearly all actives have a fitted effect of over 55% in size; growth read by luminescence after 48 h
NS1 inh = qHTS Assay for Inhibitors of Influenza NS1 Protein Function; S. cerevisiae slowed by influenza A NS1, growth recovery by OD600; Potency, µM (doses to about 46.1 µM), for the others: top-dose activity, positive = more growth; hit rate 0.4% among 270,000; note: actives are rising curves; nearly all actives have a fitted effect of over 50% in size
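S. cerevisiae expressing influenza A NS1, grown in glucose, washed, then diluted 1:100 into pH 6.0 -URA galactose medium with 23 nl compound. Growth recovery read as OD600; NS1-free strain serves as control.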
Cruzain noTriton = qHTS Assay for Promiscuous and Specific Inhibitors of Cruzain (without detergent); Cruzipain (Trypanosoma cruzi), P25779; hit rate 2.3% among 200,000; AID 1476, 2009; purified cruzain, Z-FR-AMC fluorescence, no detergent; Potency, µM, for inactives: max response, negative = inhibition, actives largely listed as inhibitors; active = well fitted curve in the direction sought with a large enough effect; inconclusive = small, poorly fitted or top-dose-only effect, or another doubt; inactive = no such curve, though single readings can be large; an effect the other way counts as inactive or inconclusive;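 note: plate controls were enzyme without inhibitor for no effect and buffer without enzyme for full effect; nearly all actives have a fitted effect of over 40% in size; top concentration of the series not given in the record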
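Detergent-free condition (0.00005% Triton X-100) in acetate buffer pH 5.5 with DTT. 1.5 nM enzyme and compound were pre-mixed 15 min, then 2 uM Z-FR-AMC substrate added; reaction progress from fluorescence change between first and third reads (60 s).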
LASV entry inh = qHTS for Inhibitors of binding or entry into cells for Lassa Virus | Lassa virus pseudotype entry inhibition, cell reporter; control for the full effect not named in the record | Potency, µM (top dose mostly 37.9 µM), for the others: top-dose activity change, negative = inhibition, actives largely listed as inhibitors | hit rate 1.2% among 300,000 | AID 540256, 2011; active means well fitted inhibition curve with a large enough effect; inconclusive means small, poorly fitted or top-dose-only effect, or effect the other way; inactive means flat fitted curve, though single readings scatter; tested in HEK293 cells; note: % is set by controls: 0 for no effect and ±100 for the full control effect; nearly all actives have a fitted effect of over 50% in size; luciferase read-out
An asterisk follows results filed as active; ? = inconclusive; . = not tested or not shown; [ ] = another dose, or the depositor's remark. Unless noted, calls come from the whole dose curve; as a rule, active means well fitted rising curve with a large enough effect; inconclusive means small, poorly fitted or top-dose-only effect; inactive means no such curve, though single readings can be large or run the other way. Potency is the fitted concentration of half-maximal effect.

Values run as follows: 2A StopGo, Cruzain Triton, MARV entry inh, RE007 growth inh, SARS PLP yeast, NS1 inh, Cruzain noTriton, LASV entry inh
> O=C(c1cccc(O)c1)N1CCN(C(=O)C2CC2)CC1
    -27%, ., 13%, -15%, -2%, ., ., -2%
> CN(C)c1ccc(C(=O)n2nnc3ccccc32)cc1
    ., -17%, 19%, -12%, -15%, -63%, -4%, 20%
> CCOC(=O)C(=CNc1ccc(C(O)(C(=O)OCC)C(F)(F)F)cc1C)C(=O)OCC (configuration not stated)
    -26%, -9.8%, ?, 12%, -2%, -17%, ?, ?
> N#CC1(NC(=O)COC(=O)CCCN=C2NS(=O)(=O)c3ccccc32)CCCCC1
    -11%, ., 17%[46.1 µM], -9%, -5%, -4%, ., -2%
> CCCCNC(=O)c1nn(C)c2c1CSc1ccccc1-2
    34%[activator], -2.6%, ?, ., ., ., -1%, -31%[46.1 µM]
> CC(C)CN(CC(C)C)C(=O)C1C2c3ccccc3C(c3ccccc32)C1C(=O)O (configuration not stated)
    -5%, ., ., -9%, 2%, -2%, ., .
> COc1ccccc1CNC(=O)C1CCN(S(C)(=O)=O)CC1
    8%, -1.3%, 1%, 16%, ., -11%, 0%, 3%
> CCC(C)(C(=O)NC1CCCC1)N(C)C(=O)Cc1c[nH]c2ccccc12 (configuration not stated)
    3%, ., -4%[46.1 µM], -7%, -1%, ., ., -17%
> COC(=O)CCCCC1SCC(NC(=O)OC)C1NC(=O)OC (configuration not stated)
    0%, -1.2%, 5%, 19%, -1%, -1%, -5%, 14%
> O=C(c1cc2ccccc2o1)N(Cc1ccco1)Cc1cccs1
    -15%, ., -4%, -8%, ., ., ., -10%
> O=C(NCc1ccncc1)NC1CCCCC1
    3%, ., ., -5%, 0%, -4%, ., .
> NC(N)=NNC(=O)c1ccccc1Cl
    6%, -3.0%, 7%, 6%, -1%, 3%, -5%, 2%
> CC(=O)Nc1ccc(N2C(=O)CC(Sc3nc4ccccc4s3)C2=O)cc1 (configuration not stated)
    10%, ., ., -7%, -1%, 2%, ., .
> Cc1ccc(NC(=O)/C(=C\c2cccnc2)NC(=O)c2ccco2)cc1
    7%, -1.8%, -8%[46.1 µM], 4%, 16%, 8%, -5%, -1%
> COc1ccc(-n2cc(CNCc3cnc4ccccn34)c(-c3cccc(F)c3)n2)cc1
    -16%, ., ?, -9%, -3%, 7%, ., -29%

In the list so far, these contain four or more nitrogen atoms:
Values run as follows: 2A StopGo, Cruzain Triton, MARV entry inh, RE007 growth inh, SARS PLP yeast, NS1 inh, Cruzain noTriton, LASV entry inh
> CN(C)c1ccc(C(=O)n2nnc3ccccc32)cc1
    ., -17%, 19%, -12%, -15%, -63%, -4%, 20%
> N#CC1(NC(=O)COC(=O)CCCN=C2NS(=O)(=O)c3ccccc32)CCCCC1
    -11%, ., 17%[46.1 µM], -9%, -5%, -4%, ., -2%
> NC(N)=NNC(=O)c1ccccc1Cl
    6%, -3.0%, 7%, 6%, -1%, 3%, -5%, 2%
> COc1ccc(-n2cc(CNCc3cnc4ccccn34)c(-c3cccc(F)c3)n2)cc1
    -16%, ., ?, -9%, -3%, 7%, ., -29%

Going on with the list.
Values run as follows: 2A StopGo, Cruzain Triton, MARV entry inh, RE007 growth inh, SARS PLP yeast, NS1 inh, Cruzain noTriton, LASV entry inh
> O=C(Cc1ccccc1)NCC(=O)N1CCN(c2ccccc2)CC1
    -14%, ., ?, -3%, 0%, 14%, ., -4%
> COc1ccc(NC(=O)CN(C)C(=O)c2ccc(NC3CC3)c([N+](=O)[O-])c2)cc1
    -7%, ., 0%[46.1 µM], -1%, -11%, ., ., ?
> CCOC(=O)c1cn(Cc2ccc(Br)cc2)nn1
    -10%, -1.4%, -9%, 13%, -3%, 4%, -2%, ?
> Clc1ccc(CSc2ncn(-c3ccccc3)n2)cc1
    18%, -3.3%, -10%, -28%, -30%, -5%, 4%, 5%
> Cc1cc(NC(=O)c2cccn(Cc3cccc([N+](=O)[O-])c3)c2=O)no1
    -12%, 0.6%, ., ., ., ., -10%, 16%[46.1 µM]
> Cc1cc(C)n2nc(SCc3nnc(SCc4ccccc4C)s3)nc2n1
    ., -4.2%, -6%, 0%, -9%, -10%, ?, 0%
> COc1ccc(COC(=O)C2=C(C)NC(=O)NC2c2ccccc2)cc1 (configuration not stated)
    -15%, ., -26%, 5%, 1%, 11%, ., ?
> O=[N+]([O-])c1cccc(CN2CCCCCC2)c1
    -9%, ., 9%[46.1 µM], -2%, 8%, 7%, ., 10%[46.1 µM]
> CC([NH2+][O-])C(C)(C)NO (configuration not stated)
    -17%, 3.9%, -17%, -19%, 5%, 12%, 1%, 17%
> CCN1CCN(C2=C(NS(=O)(=O)c3ccc(NC(C)=O)cc3)C(=O)c3ccccc3C2=O)CC1
    -27%, ., ., -17%, -2%, -10%, ., .
> CCCn1ccc2c(OCC(=O)NCc3ccc(C)cc3)cccc2c1=O
    1%, -3.8%, ., ., ., ., -11%, .
> CCCN(C(=O)COC(=O)c1cc(CC)c(C)s1)c1c(N)n(Cc2ccccc2)c(=O)[nH]c1=O
    0%, ., -24%, 24%, 1%, ., ., 0%
> O=C(NCC1CCCO1)C1CCCN1C(=O)Nc1ccc(Cl)cc1 (configuration not stated)
    -15%, ., ., -12%, 1%, 6%, ., .
> CC(=O)c1cccc(NC(=O)c2ccc(NS(C)(=O)=O)cc2)c1
    2%, -1.4%, -10%, -8%, 0%, 9%, -12%, -1%
> CCCCc1cn([C@@H](CCCCNC(=O)OC(C)(C)C)C(=O)N2CCN(C(=O)OC(C)(C)C)CC2)nn1
    -9%, ., ., 5%, 1%, -2%, ., .
> COC(=O)CCC(=O)Nc1ccc(C)cc1OC(=O)CCC(=O)OC
    -13%, 3.0%, 6%[46.1 µM], 0%, 8%[6.58 µM], 0%, 0%, -1%
> COc1ccc(-c2nc(CN3CCN(C(=O)c4ccco4)CC3)c(C)o2)cc1OC
    -6%, ., ., -5%, 17%, 26%, ., .
> CCOc1cc(-c2cc(-c3ccccc3)nc(N)c2C#N)ccc1O
    ., -12%, ?, 3%, -3%, 4%, 4%, ?
> COc1ccc(NC(=O)CSc2nnc(-c3ccccn3)n2N)cc1
    11%, 0.3%, 12%, 12%, -3%, 4%, 5%, -13%
> CC1(c2cccc3ccccc23)OC(=O)c2ccccc21 (configuration not stated)
    -21%, ., -29%, -4%, ., ., ., ?
> COc1ccc(NC(=O)CSc2nc3c(c(=O)[nH]2)CCC3)cc1OC
    -18%, 7.5%, ?, -6%, 2%, 17%, -5%, -2%
> O=C(Nc1c(Cl)cccc1Cl)C1CCC1
    6%, 12%, -7%, 20%, 1%, -4%, 2%, 13%
> Cc1nc(NC(=O)CC(C)C)sc1-c1csc(Nc2ccc(Cl)cc2)n1
    -21%, 2.1%, ., 20%, 1%, 23%, 13µM*, .
> CC(C)(C)NS(=O)(=O)c1ccc2nc(NC(=O)Cc3cccs3)sc2c1
    6%, -7.5%, -28%[46.1 µM], 7%, 4%, -6%, -23%, ?
> CCOc1ccc(NC(=O)C(C)Sc2nc3ncccc3o2)cc1 (configuration not stated)
    17%, -4.2%, ., ., ., ., 19%, 24%[46.1 µM]
> CN(CC(=O)Nc1ccc(F)cc1)C(=O)COc1ccc([N+](=O)[O-])cc1Cl
    -14%, ., 6%[46.1 µM], 3%, 0%, -7%, ., -3%
> COc1cc2c(cc1OC)C(C)=NC1(CCCCC1)C2
    -9%, ., -10%, -9%, -1%, 5%, ., -1%
> COc1cccc(-c2nn(-c3ccc(C)cc3)cc2C(=O)N2CCc3cc(OC)c(OC)cc3C2)c1
    6%, ., ?, 8%, -20%, ., ., ?
> Cn1ccnc1C1CCCCN1Cc1nc(-c2ccc3c(c2)OCO3)no1 (configuration not stated)
    -7%, ., ?, 14%, 4%, -2%, ., 17%
> CCN1CCN(S(=O)(=O)c2ccc(OC)c3ccccc23)CC1
    18%, ., -6%[46.1 µM], 5%, 3%, 0%, ., -6%[46.1 µM]
> COc1cc(-c2nnc(-c3ccc(S(=O)(=O)c4ccccc4)cc3)o2)cc(OC)c1OC
    -26%, -21%, 17%, -1%, 2%, -9%, ?, -17%
> O=C(CSc1nc2c([nH]c3ccccc32)c(=O)n1-c1cccc(Cl)c1)c1ccccc1
    -18%, 0.3%, ., ., ., ., -4%, 2%[46.1 µM]
> Cc1cccc(N=C(N2CCOCC2)P(=O)(N2CCOCC2)N2CCOCC2)c1
    -18%, -2.8%, -6%, -23%, 7%, 5%, 1%, -2%
> Cc1nnc(-c2ccccc2)c[n+]1[O-]
    11%, -1.6%, -5%, 0%, -3%, -2%, -9%, 2%
> Cc1cccc(NC(=O)CNc2cc(C)ccc2C)c1
    46%[activator], -4.6%, -1%, -14%, 0%, -2%, 20µM*, 5%
> O=C(c1ccc(S(=O)(=O)Nc2ccccc2Cl)cc1)N1CCOCC1
    0%, ., -18%, 13%, 0%, ., ., ?
> Cc1cc(C)n2nc(C(=O)Nc3ccc(S(=O)(=O)N4CCCCC4)cc3)nc2n1
    -13%, -6.4%, 5%[46.1 µM], -2%, 0%, -1%, -7%, 5%
> Cc1ccc(CS(=O)(=O)c2ccccc2-c2nnc(-c3ccc(Cl)cc3)o2)cc1
    -27%, 0.4%, ?, 7%, 5%, 24%, ?, -25%
> CC(C)(C)c1csc(NC(=O)Nc2ccccc2)n1
    -34%, ., ?, 4%, -7%, ., ., ?
